# HPGD inh – inhibitors of human 15-hydroxyprostaglandin dehydrogenase (HPGD); P15428; purified HPGD, NADH fluorescence kinetic, PGE2 substrate; Potency, µM, inactives show at the top dose activity change, negative = inhibition, usual class: inhibitors; actives 4.3% (n = 150,000); AID 894; active = well fitted inhibition curve with a large enough effect (not every such curve was filed as active); inconclusive = small, poorly fitted or top-dose-only effect, or another doubt; inactive = no such curve, though single readings can be large or run the other way;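 note: top concentration of the series not given in the record; plate controls included wells without enzyme; inactives centre near -10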
# Target sequence (P15428 whole entry, looked up): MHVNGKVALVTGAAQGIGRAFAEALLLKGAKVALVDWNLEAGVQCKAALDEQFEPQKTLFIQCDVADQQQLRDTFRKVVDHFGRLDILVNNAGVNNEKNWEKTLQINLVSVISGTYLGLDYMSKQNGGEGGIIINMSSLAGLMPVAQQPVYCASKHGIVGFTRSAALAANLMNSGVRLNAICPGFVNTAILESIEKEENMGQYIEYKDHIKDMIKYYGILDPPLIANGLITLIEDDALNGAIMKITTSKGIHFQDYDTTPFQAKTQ
#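 20 nM HPGD preincubated 15 min at room temperature with compound in 50 mM Tris-HCl pH 8, 0.01% Tween 20. Started with 1 mM NAD+ and 30 uM prostaglandin E2; NADH fluorescence (360/450 nm) read 5 times over 30-s intervals, last minus first.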
# An asterisk follows results filed as active; ? = inconclusive; & = joins results of further samples. % is set by controls: 0 for no effect and ±100 for the full control effect; potency is the fitted concentration of half-maximal effect.
HPGD inh	molecule
?	COc1ccc(-c2nc3cnc(N4CCN(C)CC4)nc3n(CCC#N)c2=O)cc1
-7%	CCOc1ccc(-n2c(SCc3cc(=O)oc4cc(C)c(C(C)C)cc34)nnc2-c2cccnc2)cc1
-14%	COC(=O)C1C(=O)NCC1c1ccc(OC)cc1 (configuration not stated)
?	N#Cc1nc(-c2cccs2)oc1N1CCOCC1
14µM*	CCOCc1nnc(NC(=O)c2cc(Cl)ccc2OC)s1
-15%	Cc1ccc(-c2[nH]ncc2/C=N/n2c(COc3ccccc3)nc3ccccc3c2=O)cc1
-5%	CCCCN(CC)C(=O)Cc1ccccc1OC
-21%	CC(=O)c1cccc(NC(=O)NCc2cccs2)c1
-3%	Cc1ccc(S(=O)(=O)c2nc(NCCN(C)C)sc2Cl)cc1
-22%	CCCc1nc(SCC(=O)Nc2ccc(S(=O)(=O)N(C)C)cc2)c2ccccc2n1
-11%	CCOC(=O)C1=C(CC)Nc2ccccc2N=C1NC(=O)c1cccc(S(=O)(=O)N2CCCC2)c1
-5%	COc1ccc(CCNC(=O)N2CCOCC2)cc1

# Structural class: the entries above containing sulfur (seven)
HPGD inh	molecule
-7%	CCOc1ccc(-n2c(SCc3cc(=O)oc4cc(C)c(C(C)C)cc34)nnc2-c2cccnc2)cc1
?	N#Cc1nc(-c2cccs2)oc1N1CCOCC1
14µM*	CCOCc1nnc(NC(=O)c2cc(Cl)ccc2OC)s1
-21%	CC(=O)c1cccc(NC(=O)NCc2cccs2)c1
-3%	Cc1ccc(S(=O)(=O)c2nc(NCCN(C)C)sc2Cl)cc1
-22%	CCCc1nc(SCC(=O)Nc2ccc(S(=O)(=O)N(C)C)cc2)c2ccccc2n1
-11%	CCOC(=O)C1=C(CC)Nc2ccccc2N=C1NC(=O)c1cccc(S(=O)(=O)N2CCCC2)c1

# Next part
HPGD inh	molecule
-9%	Cc1ccc(C)c(CSC2=NCCN2C(=O)Cc2ccc([N+](=O)[O-])cc2)c1
10µM*	Cc1cccc(NC(=O)C2CC(=O)n3cnnc3S2)c1 (configuration not stated)
-9%	C=CCn1c(SCCOc2ccc(OC)cc2)nnc1C(C)NC(=O)c1ccc(OC)cc1 (configuration not stated)
-3%	Cc1ccc(NC2=C(NCCO)C(=O)c3ccccc3C2=O)cc1
-2%	Nc1nc(SCC(=O)Nc2ccc([N+](=O)[O-])cc2Br)n[nH]1
-9%	OCCNCc1ccc(OC2CCCC2)cc1
-3%	O=C(O)c1cc(S(=O)(=O)N2CCCCC2)ccc1F
-3%	O=C(C1CCCN(S(=O)(=O)c2ccc(F)cc2)C1)N(Cc1cccs1)C1CC1 (configuration not stated)
-5%	COc1ccc(/C=N/NC(=S)Nc2cc(S(=O)(=O)N3CCOCC3)ccc2N2CCOCC2)cc1O
-13%	CCN(CC)CCCN1C=C2C(=O)C(C)(OC(=O)CCC(=O)OC)C(=O)C(Br)=C2C=C1c1ccc(OC)cc1 (configuration not stated)
-12%	CCC#CCOCC(=O)Nc1ccccc1
-22%	N#Cc1cc(Oc2ccc3ccccc3c2)c(-n2nnc3ccccc32)cc1C#N
-25%	O=c1c2c(nc3n1CCCCC3)sc1c(O)cccc12
0%	CCCCCSc1nnc(-c2ccccc2N)c(=O)[nH]1
-17%	CCOc1ccc(NC(=O)CCN2CCN(c3ccccc3OC)CC2)cc1
-4%	O=C(NC[C@H]1CCCCN1)c1cc(OCC(F)(F)F)ccc1OCC(F)(F)F
-19%	NC(=O)c1cc2cc(Cl)ccc2oc1=O
-2%	CCc1ccc(CN2CCN(S(=O)(=O)Cc3ccccc3)CC2)cc1
-6%	Nc1nc(CC(=O)O)cs1
1%	CNc1nc(N(C)C)nc(N(C)C)n1
5%&-11%	C=C(C)[C@H]1CC=C(C)C(=O)C1
11µM*	O=C(c1cc(-c2ccco2)on1)N1CCc2ccccc2C1
-3%	C[C@@H]1C[C@H]2[C@@H]3CCC4=CC(=O)C=C[C@]4(C)[C@@]3(F)[C@@H](O)C[C@]2(C)[C@@]1(O)C(=O)CO
-12%	CN(C)CCCN1C(=O)C(=O)/C(=C(/O)c2ccncc2)C1c1cccnc1 (configuration not stated)
-12%	O=c1c2c3c(sc2nc2sc(CN4CCCCC4)cn12)CCCC3
-10%	Cc1oc(C)c2c(=O)ccc3c(c12)OC(N)=C(C#N)C3c1ccccc1Cl (configuration not stated)
-29%	C=CCn1c2ccccc2c2nnc(SCN3C(=O)c4ccccc4C3=O)nc21
?	COc1ccc(-n2nc(C(=O)NCC(=O)Nc3ccccn3)c3ccccc3c2=O)cc1Cl
-14%	CCOC(=O)Cc1cc(=O)[nH]c(/N=C(/NC(=O)c2ccccc2)Nc2ccccc2C(F)(F)F)n1
-24%	CCn1cc(C(=O)NCCCN2CC(C)CC(C)C2)c(=O)c2cc(S(=O)(=O)N(C)C)ccc21 (configuration not stated)
-6%	COc1ccccc1-n1c(SCC(N)=O)nnc1-c1ccc(S(=O)(=O)N2CCCCC2)cc1
-3%	CCNc1ccccc1
?	CC(C)C(C)(C#N)NC(=O)CSc1nc2scc(-c3ccccc3)c2c(=O)[nH]1 (configuration not stated)
-9%	CCCCC1=CC2=CC(=O)C(C)(OC(=O)CC)C(=O)C2=CN1Cc1ccccc1 (configuration not stated)
-22%	COc1ccc2oc(=Nc3ccccc3)c(-c3nc4ccccc4[nH]3)cc2c1
-9%	CCCN1Cc2cccc(C(=O)Nc3ccc4c(c3)OCCO4)c2C1=O
-8%	CCOC(=O)N1CCN(CC(O)c2ccc3cc[nH]c3c2)CC1 (configuration not stated)
-13%	O=C(COC(=O)c1ccncc1)Nc1cc(Cl)c(Cl)cc1Cl
-7%	COc1ccc2cc(S(=O)(=O)N3CCCCC3)ccc2c1S(=O)(=O)N1CCCCC1
-12%	CCCOc1ccccc1C1CC(=O)Nc2cc3c(cc21)OCCO3 (configuration not stated)
?	c1ccc(-c2oc3ncnc(N4CCOCC4)c3c2-c2ccccc2)cc1
-29%	COC(=O)c1c(C(=O)OC)c2cc(C)ccn2c1Cl
-5%	CC1CCCCC1NC(=O)CSc1nnc(CN2CCOCC2)n1C (configuration not stated)
-17%	CCOc1ccc(C(=O)NC(=S)NCc2cccnc2)cc1[N+](=O)[O-]
-7%	COCCOc1cc(-n2ccnc2SC)c(Cl)cc1Cl
-20%	Cc1ccc(-c2cc(C(=O)N3CCCc4ccccc43)c3ccccc3n2)cc1
-20%	CC(NC(=O)CC1Nc2ccccc2NC1=O)c1ccccc1 (configuration not stated)
-8%	CCOc1ccccc1NC(=O)COC(=O)CNS(=O)(=O)c1ccc(C)cc1
-2%	CN1CCN(CC(=O)N2c3ccccc3C(C)(c3ccc(Cl)cc3)CC2(C)C)CC1 (configuration not stated)
-1%	CNc1ccnc(-c2ccccc2C(F)(F)F)n1
0%	CCN1C(=O)CC(Sc2ccccc2N)C1=O (configuration not stated)
-6%	COc1ccccc1CNS(=O)(=O)c1ccc(C)cc1
-12%	CN1CCN(c2ccc(S(=O)(=O)N3CCCCC3)cc2NC(=O)c2ccc(C#N)cc2)CC1
-21%	COc1ccc(C(=O)NC(=S)NCc2ccc(-c3nc4ccccc4o3)cc2)cc1OC
-25%	CCc1c(C)sc(NC(=O)OC)c1C(N)=O
-12%	O=C(CNC(=O)c1ccco1)OCc1ccc(Cl)cc1
-8%	O=C(N/C(=C/c1cn(-c2ccccc2)nc1-c1ccccc1)C(=O)N1CCOCC1)c1ccccc1
-11%	Cc1nc2sc(C(c3cccs3)N3CCC(C(N)=O)CC3)c(O)n2n1 (configuration not stated)
-12%	CCN(c1ccc(NC(=O)CCNC(=O)c2ccco2)cc1)C(C)C
-6%	N=C(N)SCCN1CCCCC1

# Additional records follow:
HPGD inh	molecule
?	O=c1[nH]c(=O)n(Cc2ccco2)c2c1C(C(F)(F)F)(C(F)(F)F)N=C(CCC1CCCCC1)N2
-3%	O=C(C[C@@H](C(=O)O)N1CCOCC1)c1ccccc1
14µM*	Cc1nc([N+](=O)[O-])nn1C12CC3CC(CC(Br)(C3)C1)C2
?	COc1ccc(-c2nn(C)c(=O)c3ccccc23)cc1NC(=O)COc1ccc(C)cc1
-9%	Cc1cc(C)cc(NC(=O)C2(c3cccs3)CCOCC2)c1
-6%	CCOC(=O)Cn1c(=O)oc2cc(S(=O)(=O)NCCc3ccc(OCC)c(OCC)c3)ccc21
-6%	CC(=O)Nc1ccccc1C(=O)N1CC2(C)CC1CC(C)(C)C2 (configuration not stated)
-16%	C/C(N)=C(/C#N)C(=O)CSc1nnc(COc2cc(C)ccc2C)o1
-7%	Cc1cc(C)c(S(=O)(=O)c2ccccc2)c(OC(=O)c2c(Cl)cccc2Cl)n1
-10%	CC(C(=O)N1c2ccc(F)cc2CCC1C)N1C(=O)c2ccccc2C1=O (configuration not stated)
-20%	COc1ccc(N2CCN(C(=O)CN=C3NS(=O)(=O)C(c4ccc(C)cc4)=C3C)CC2)cc1
-31%	COc1ccc(C(=O)Nc2ccc(S(=O)(=O)Nc3onc(C)c3C)cc2)cc1
-1%	O=C(CCNS(=O)(=O)c1cccs1)N1CCCCCC1
?	O=C(O)CNCC1COc2ccccc2O1 (configuration not stated)
-19%	O=C1OC(c2ccccc2)=C/C1=C/N1CCOCC1
-4%	C/C(=N\NC(=O)C1CC1c1ccccc1)c1cccc([N+](=O)[O-])c1 (configuration not stated)
?	CCC(=O)Nc1nonc1-c1nc2ccccc2n1Cc1cccc2ccccc12
-20%	CC(C)OC(=O)CSc1nnnn1-c1ccc2c(c1)OCCO2
-11%	Cc1cc(C)n(-c2nc3ccccc3nc2Nc2ccc3c(c2)OCO3)n1
-14%	COc1ccc(C(=O)NCc2nnc(SCC(=O)NCc3ccc(F)cc3)o2)cc1
-8%	Cc1cccc(OCC(=O)NCc2ccncc2)c1C
25µM*	COCCNC(=O)c1cnn2c1NC(c1ccco1)CC2C(F)(F)F (configuration not stated)
-23%	CCN(CC)S(=O)(=O)c1ccc(N2CCOCC2)c(NC(=O)C23CC4CC(CC(Cl)(C4)C2)C3)c1
-9%	NC(=O)[C@@H]1CCCCNc2c(F)cc([N+](=O)[O-])cc2C(=O)N[C@@H](CCCN=C(N)N)C(=O)NCC(=O)N1

# Fetched by compound from above, five records:
HPGD inh	molecule
-11%	Cc1cc(C)n(-c2nc3ccccc3nc2Nc2ccc3c(c2)OCO3)n1
-20%	CC(C)OC(=O)CSc1nnnn1-c1ccc2c(c1)OCCO2
-8%	Cc1cccc(OCC(=O)NCc2ccncc2)c1C
?	O=C(O)CNCC1COc2ccccc2O1 (configuration not stated)
-4%	C/C(=N\NC(=O)C1CC1c1ccccc1)c1cccc([N+](=O)[O-])c1 (configuration not stated)

# Continuation.
HPGD inh	molecule
?	CC(C)(C)C(=O)n1nc(-c2ccccc2)oc1=O
-12%	Cc1c(NC(=O)CCC2CCCCC2)c(=O)n(-c2ccccc2)n1C
-15%	O=C(Nc1cccc(Cl)c1)C1CCCN(S(=O)(=O)c2ccc(F)cc2)C1 (configuration not stated)
5%	Cc1cccc(C)c1OCC(=O)NCc1nnc(SCC(=O)NC2CCCCC2C)n1C (configuration not stated)
-30%	O=C(C/C=N/OCc1c(Cl)cccc1Cl)c1ccc(Cl)cc1
?	CC(=O)N1CCc2c(sc(NC(=O)C3CC3)c2-c2nc3ccccc3s2)C1
-6%	Cc1nc(SC2CCOC2=O)c2c(C)c(C)sc2n1 (configuration not stated)
-15%	c1ccc2c(c1)CCN2CCN1CCc2ccccc21
-4%	COc1ccc(C(=O)Nc2ccc(C)cn2)c(OC)c1
-8%	CCc1ccc(C(C)NC(=O)/C=C/c2ccc(Br)cc2)cc1 (configuration not stated)
-18%	Nc1cccc(C(=O)OCC(=O)Nc2cccc3c2C(=O)c2ccccc2C3=O)c1
-9%	CN(Cc1c(O)ccc2c1oc(=O)c1ccccc12)C1CCCCC1
0%	CCCCCCCN1N=C(C)C(C(=O)c2ccccc2)C1=O (configuration not stated)
-10%	CCCCOCCCn1cnc2c([nH]c3cc(OC)ccc32)c1=O
16µM*	C/C(=C\C(=S)Nc1ccccc1)Nc1ccccc1
3%	O=C(NCCCn1ccnc1)c1ccc(Br)c(S(=O)(=O)N2CCOCC2)c1
-14%	COc1cc(/C=N/N=C(/N)c2nonc2N)cc(Br)c1OCc1ccccc1C
-3%	CC(NC(=O)C(C)(C)C)c1nc2ccccc2n1C (configuration not stated)
-21%	C=CCSc1nnc2c(n1)OC(c1cccnc1)Nc1ccccc1-2 (configuration not stated)
-5%	CC1CCCC(C)N1C(=O)CSc1nnnn1Cc1ccccc1 (configuration not stated)
-6%	CN(C)S(=O)(=O)Nc1ccc(C(=O)O)cc1
7%	CN1CCN(CCCNC(=O)CCCOc2cc(=O)n(C)c3ccccc23)CC1
-10%	CO[C@H]1C[C@@H]2CC[C@@H](C)[C@@](O)(O2)C(=O)C(=O)N2CCCC[C@H]2C(=O)OC([C@H](C)C[C@@H]2CC[C@@H](O)[C@H](OC)C2)CC(=O)[C@H](C)/C=C(\C)[C@@H](O)[C@@H](OC)C(=O)[C@H](C)C[C@H](C)/C=C/C=C/C=C/1C (some centres not stated)
-14%	Cc1ccccc1NS(=O)(=O)c1ccc(OCC(=O)N2CCCC2)cc1

# High-throughput results (PubChem BioAssay)

# This is a subset; rates above refer to the full screens.
